Screening data as filed in PubChem.
ALR H2O2 inh: blocks human ALR sulfhydryl oxidase activity | AID 485317 | inhibition, % (concentration not given with the values) | 290,000 tested, 3.8% active | purified ALR, DTT oxidation, H2O2 HRP-luminol luminescence;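 active means mean and each replicate at 75% or more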;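 further: stock transfer was 7.5 nL into about 7.5 µL; 0% = neutral wells and 100% = wells with inactivated enzyme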
Target sequence (P55789 whole entry, looked up): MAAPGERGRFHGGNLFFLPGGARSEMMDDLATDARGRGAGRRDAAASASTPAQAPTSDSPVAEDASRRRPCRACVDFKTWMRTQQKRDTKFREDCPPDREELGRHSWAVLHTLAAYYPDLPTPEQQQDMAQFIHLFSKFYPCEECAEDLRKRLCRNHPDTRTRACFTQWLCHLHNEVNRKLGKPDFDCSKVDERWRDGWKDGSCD
Ecoli rRNA inh: selective bacterial rRNA inhibition in E. coli; E. coli WT GFP vs humanized-ribosome RFP mutants, fluorescence, 24 h; hits give low values; DMSO median 0, no signal -100; GFP signal change (wild-type ribosome), % (concentration not given with the values); 350,000 tested, 1.6% active;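 active means significant combined selectivity score with lowered wild-type GFP, culture density cut under 30%, mutant RFP and density less affected; inactive means any of these conditions unmet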; further: one replicate is shown; some compounds called inactive have numbers as strong as hits
E coli growth: E. coli growth inhibition; Escherichia coli growth, OD600, 23 h; hits give low values; OD600 absorbance (test concentration not listed); 330,000 tested, 0.21% active; AID 1053175;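 active means OD600 absorbance below the run mean of sample wells minus 3.6 SD, in any replicate, cut at about 0.56 in these data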;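 further: stock transfer was 300 nL into about 60 µL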
FGF22 binding: binders of recombinant human FGF22 by thermal shift. SYPRO orange fluorescence; percent of sucrose octasulfate shift, DMSO zero. calls only at 9.99 µM. 340,000 tested, 1.5% active. AID 651658;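 active means melting point raised past a set limit in the mean and every replicate; three in four hits are not shown here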
UCH37 inh: inhibitors of human deubiquitinating enzyme UCH37 | Q9Y5K5 | purified proteasome/UCH37, Ub-AMC cleavage fluorescence | inhibition, % (test concentration not listed) | 330,000 tested, 0.33% active | AID 588478;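 active means mean of two replicates above 20%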;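 further: 0% = compound-free wells with enzyme and 100% = wells lacking proteasome; stock transfer was 100 nL into about 20 µL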
Target sequence (Q9Y5K5 whole entry, looked up): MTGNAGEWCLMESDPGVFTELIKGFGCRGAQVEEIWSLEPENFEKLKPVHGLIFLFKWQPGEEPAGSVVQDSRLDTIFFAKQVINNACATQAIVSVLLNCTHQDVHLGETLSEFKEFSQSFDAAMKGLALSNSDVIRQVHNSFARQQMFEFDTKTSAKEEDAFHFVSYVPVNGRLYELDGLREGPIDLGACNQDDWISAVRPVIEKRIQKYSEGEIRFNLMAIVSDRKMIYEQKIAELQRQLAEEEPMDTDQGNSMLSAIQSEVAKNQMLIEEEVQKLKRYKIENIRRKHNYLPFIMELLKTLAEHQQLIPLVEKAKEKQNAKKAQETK
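System: Proteasome-associated human UCH37 deubiquitinase; Input: 0.15 nM proteasome in added enzyme buffer; Also added: Ub-AMC substrate from 1 µM stock; Incubation: 30 min compound-proteasome preincubation then 25 min substrate reaction, room temperature; Detection: fluorescence, ex 355 nm, em 460 nm; Read-out: % inhibition of Ub-AMC cleavage fluorescence; Benchmarks: no-proteasome and no-compound wells.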
B2AR ag: activates human beta-2 adrenergic receptor causing internalization | Am2.2-beta2AR cells, FAP receptor internalization, flow cytometry; reference of the scale not given here | AID 504454 | response, % (no concentration beside the values) | 340,000 tested, 0.43% active | P07550;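 active means response above a set limit, near 3 SD of response in nonfluorescent compounds, cut at about 42% in these data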;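 further: stock transfer was 100 nL into about 11 µL; a reference agonist was the positive control; negative values mostly stem from fluorescent compounds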
HNF4A DNA FP: change in binding of human HNF4 alpha to DNA; HNF4a-FITC DNA binding, fluorescence polarization, 1 h; activity change, % at 10 µM; 360,000 tested, 0.3% active; AID 1224865; in the data active means activity change above about 30%, passing the limit was not always enough;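 further: controls were the assay level and a saturating level of protein; the project sought stronger binding though the title names inhibitors; some compounds called inactive have numbers as strong as hits; positive values seem to mean higher polarization but the record does not say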
Target sequence (P41235 whole entry, looked up): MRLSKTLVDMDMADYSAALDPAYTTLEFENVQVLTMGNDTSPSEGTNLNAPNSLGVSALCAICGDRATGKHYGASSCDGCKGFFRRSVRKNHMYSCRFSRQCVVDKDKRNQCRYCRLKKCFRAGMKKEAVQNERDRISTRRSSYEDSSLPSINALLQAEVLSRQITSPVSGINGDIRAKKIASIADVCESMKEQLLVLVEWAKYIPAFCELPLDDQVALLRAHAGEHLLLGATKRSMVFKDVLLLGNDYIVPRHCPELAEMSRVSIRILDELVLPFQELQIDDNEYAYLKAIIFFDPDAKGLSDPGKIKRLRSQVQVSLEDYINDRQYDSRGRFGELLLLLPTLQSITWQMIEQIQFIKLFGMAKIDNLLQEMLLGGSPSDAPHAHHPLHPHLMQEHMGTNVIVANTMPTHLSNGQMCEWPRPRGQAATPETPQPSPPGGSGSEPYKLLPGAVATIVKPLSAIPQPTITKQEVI
Ecoli rRNA inh OD600: recorded beside Ecoli rRNA inh, whose call it bears; OD600 change, %; measured here: OD600 growth;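 optical density of the mix in the first replicate; 0 = DMSO median and -100 = no signal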
Ecoli rRNA inh RFP: also measured in Ecoli rRNA inh; calls as there; RFP signal change, %; measured here: RFP humanized mutant strains;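 first replicate; 0 = DMSO median and -100 = no signal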
The depositor's hits bear a star; i = inactive; / = no result given.

The line under a structure holds: ALR H2O2 inh, Ecoli rRNA inh, Ecoli rRNA inh OD600, Ecoli rRNA inh RFP, E coli growth, FGF22 binding, UCH37 inh, B2AR ag, HNF4A DNA FP
- CCCN1C(=O)SC(CC(=O)Nc2cccc3ccccc23)C1=O (configuration not stated)
→ /, /, /, /, 0.709, /, 0.2, -1.7, 3.8
- Cc1nc(N2CCN(C(=O)c3ccco3)CC2)[nH]c(=O)c1C
→ /, 9.4, 12.7, 1.2, 0.703, i, -1.5, 0.5, 2.0
- Cc1ccc(C(=O)OCC(=O)NCc2ccco2)cc1C
→ -4.1, 4.4, 5.9, -1.9, /, i, /, -2.6, -1.7
- O=C(NCCc1cccs1)c1ccc(Cl)c(Cl)c1
→ /, -28.5, -39.1, -4.3, 0.644, i, 0.8, -1.3, -6.9
- Cc1cccc(-c2cc(C(=O)Nc3ccncc3)c3ccccc3n2)c1
→ /, -0.1, 3.0, 0.5, 0.734, i, -1.5, 6.1, 5.0
- CCCn1c(N)c(N(CCOC)C(=O)c2cccc(Cl)c2)c(=O)[nH]c1=O
→ -3.7, 9.4, 6.3, 4.0, 0.68, i, -0.1, 1.3, -4.3
- COc1ccc(S(=O)(=O)N2CCCC(C(=O)NCc3ccccc3)C2)cc1 (configuration not stated)
→ -1.8, 4.7, 17.7, -2.2, 0.648, i, 1.8, 3.1, -1.4
- CC(=O)N(CC(C)C(=O)O)c1c(I)cc(I)c(N)c1I (configuration not stated)
→ -19.0, /, /, /, 0.701, i, 5.4, 14.4, -1.5
- O=C(/C=C/c1ccccc1Cl)NC(=S)Nc1ccccc1C(=O)NC1CCCCC1
→ 0.0, /, /, /, 0.666, /, 4.9, -1.1, 3.6
- CCc1nnc(NC(=O)CSc2ccc(-c3nc4ccc(C)cc4[nH]3)cn2)s1
→ 28.1, /, /, /, 0.685, /, -59.8, 1.2, 1.6
- COc1ccccc1Cn1nnc2c(=O)[nH]c(C3CCN(C(=O)c4ccccc4Cl)CC3)nc21
→ /, /, /, /, 0.742, /, 0.7, -4.9, 4.7
- COc1ccc(OC)c(NC(=O)C2C3C=CC(C3)C2C(=O)NCc2cccnc2)c1 (configuration not stated)
→ -4.4, 15.3, -0.6, 1.6, 0.673, i, 2.8, -1.4, -2.6
- CC(C)NC(=O)COc1coc(CN2CCN(Cc3ccccc3)CC2)cc1=O
→ 1.1, 3.7, 2.5, -3.2, 0.659, i, 7.7, 0.7, 1.2
- COc1ccc(N(C(=O)CCl)C(C(=O)NCCc2ccccc2)c2cccs2)cc1Cl (configuration not stated)
→ 3.5, -12.4, -18.6, -9.6, 0.683, i, 5.4, 40.1, -0.3
- O=C(Cc1sc(-c2ccccc2)nc1-c1ccccc1)Nc1ccc(Cl)cc1
→ 1.9, /, /, /, 0.721, /, -2.0, -0.1, 1.4
- CC(=N/O)/C(C)=N\NC(=O)c1ccccn1
→ 0.6, 17.4, 15.8, 1.8, /, i, /, -2.2, 0.2
- NC1(C(=O)O)CCCCC1c1ccccc1 (configuration not stated)
→ /, 8.7, 13.6, 0.5, 0.679, i, 0.8, -3.3, -1.1
- COc1cc(C)ccc1OCc1cc(C(=O)NC(c2ccccn2)C(F)(F)F)no1 (configuration not stated)
→ /, 5.0, -28.1, -4.5, /, i, /, /, 0.9
- CC(C)C[C@H](NC(=O)Nc1ccc(S(N)(=O)=O)cc1)C(=O)O
→ -4.0, /, /, /, 0.707, /, 3.4, 6.9, 0.4
- C=CCNCCOc1ccccc1-c1ccccc1
→ -11.6, /, /, /, 0.64, /, -2.5, 0.7, 0.2
- COc1cc2c(cc1OC)CN(C(=O)c1ccc(Cl)c(S(=O)(=O)N3CCCC3)c1)CC2
→ -10.6, -18.8, -21.2, 1.7, 0.667, i, 3.0, 2.6, 1.6
- CCOC(=O)N1CCN(Cc2nc3c(c(=O)n(C)c(=O)n3C)n2Cc2ccccc2C)CC1
→ -6.4, /, /, /, 0.681, /, -1.2, -10.8, 0.2
- COC(=O)CCCNC(=O)c1ccc(OC2CCN(CCc3ccccc3)CC2)cc1
→ -17.9, 8.0, 11.7, 0.6, 0.708, i, 2.6, 6.5, 0.0
- Cc1csc(SCC(=O)NC(=O)NC(C)(C)C)n1
→ -1.5, 4.6, 2.2, -0.2, 0.657, i, 5.0, -0.3, 2.6
- CN1CCN(C(=S)Nc2cccc(Cl)c2)CC1
→ -2.5, /, /, /, 0.679, /, 3.0, 15.3, -1.7
- CCOC(=O)C1CCN(C(=O)COc2ccc(C(=O)c3ccccc3)cc2)CC1
→ -3.0, -2.7, -17.8, 5.1, 0.653, i, 2.0, /, -1.2
- COc1cc(NC(=O)c2cc([N+](=O)[O-])ccc2Br)ccc1NC(=O)c1ccco1
→ 47.3, /, /, /, 0.648, /, 2.8, -3.6, -0.7
- Cc1c(C)n(CCc2ccccc2)c2ncnc(NCCO)c12
→ /, 0.4, -7.2, -0.7, 0.656, i, 5.1, 1.1, 0.7
- COc1ccc(CC2(CO)CCN(S(=O)(=O)c3c(C)nn(C)c3C)CC2)cc1
→ 4.1, -10.1, -17.3, -0.5, 0.678, i, 2.3, -0.8, 1.5
- O=C(Cc1ccccc1[N+](=O)[O-])NC1CCN(Cc2ccccc2)CC1
→ 2.0, 12.4, 9.7, 1.9, 0.713, i, -1.6, 5.6, 0.0

The closing four compounds of the part before are carried over, then new ones follow:
The line under a structure holds: ALR H2O2 inh, Ecoli rRNA inh, Ecoli rRNA inh OD600, Ecoli rRNA inh RFP, E coli growth, FGF22 binding, UCH37 inh, B2AR ag, HNF4A DNA FP
- COc1cc(NC(=O)c2cc([N+](=O)[O-])ccc2Br)ccc1NC(=O)c1ccco1
→ 47.3, /, /, /, 0.648, /, 2.8, -3.6, -0.7
- Cc1c(C)n(CCc2ccccc2)c2ncnc(NCCO)c12
→ /, 0.4, -7.2, -0.7, 0.656, i, 5.1, 1.1, 0.7
- COc1ccc(CC2(CO)CCN(S(=O)(=O)c3c(C)nn(C)c3C)CC2)cc1
→ 4.1, -10.1, -17.3, -0.5, 0.678, i, 2.3, -0.8, 1.5
- O=C(Cc1ccccc1[N+](=O)[O-])NC1CCN(Cc2ccccc2)CC1
→ 2.0, 12.4, 9.7, 1.9, 0.713, i, -1.6, 5.6, 0.0
- Cc1ccc2c(C)c(C(=O)Nc3cccnc3)oc2c1
→ 12.1, /, /, /, 0.694, /, 0.0, -16.2, -0.8
- CCOC(=O)c1ccc(CNC(=O)CCC(=O)O)cc1
→ -1.8, /, /, /, 0.668, /, 5.1, -0.3, 6.0
- O=C(C[C@@H]1C/C=C\CCCC(=O)OC[C@@H]2CCCN2C1=O)N[C@H](CO)Cc1ccccc1
→ -14.0, -2.3, -3.6, 1.1, /, i, -3.5, 1.5, 1.6
- CC(=O)NC1(c2cccc(F)c2)CCN(CC(=O)NC2CCCCC2)CC1
→ -5.0, 14.4, 3.0, 3.8, 0.746, /, -0.8, -6.3, 0.0
- COc1cccc(CNS(=O)(=O)c2ccc3c(c2)NC(=O)CS3)c1
→ -7.1, -10.5, -3.3, 1.9, 0.705, i, 5.3, -1.9, -1.0
- COc1ccc(NC(=O)c2cc(C3CCCCN3S(=O)(=O)c3ccc(F)cc3F)on2)c(C)c1 (configuration not stated)
→ /, -1.7, -22.5, -0.4, /, i, /, /, 0.6
- CCOC(=O)C1=NNC2(c3ccccc3)C(=O)N(c3cccc(Br)c3)C(=O)C12 (configuration not stated)
→ 41.0, -4.9, -9.5, -4.2, 0.631, i, -0.9, 2.9, 3.8
- Cc1cccn2cc(-c3ccc(F)cc3)cc12
→ -5.9, 17.8, 4.6, 2.1, 0.748, i, -10.1, 8.7, -1.7
- CC1(C(=O)NS(=O)(=O)c2ccccc2)CCN1C(=O)C1(c2ccc(Cl)cc2)CC1 (configuration not stated)
→ /, -1.6, 17.4, 2.7, /, i, /, /, 0.3
- Cc1ccccc1Oc1ccc2c(c1)[C@@H]1C[C@H](N(C)C(=O)Nc3cc(Cl)cc(Cl)c3)[C@H]([C@H](C)O)C(=O)N1CC2
→ /, 14.7, 11.4, 2.6, /, i, /, 6.4, 0.4
- O=C(CCNC(=O)c1ccccc1Cl)Nc1ccc(S(=O)(=O)Nc2nccs2)cc1
→ 2.9, 5.1, 6.5, -4.3, 0.688, i, 1.5, -3.5, 2.8
- C=CCNC(=O)c1ccccc1NC(=O)c1ccccc1C
→ 9.4, /, /, /, 0.734, /, 1.4, -2.3, 0.6
- CC(C)CCN1C(=O)c2ccc(C(=O)OCC(=O)N(C)C3CCS(=O)(=O)C3)cc2C1=O (configuration not stated)
→ -4.2, 2.1, 5.1, -0.8, 0.685, i, 3.6, -1.7, 1.0
- CN(C)C1CN(Cc2cn(Cc3ccc(F)cc3)nn2)S(=O)(=O)C1 (configuration not stated)
→ /, 3.6, 12.2, -5.6, /, i, /, /, -3.8
- Cc1ccc(C(O)Cn2nc(C)cc2C)cc1 (configuration not stated)
→ -2.3, 9.3, 16.9, 14.0, 0.686, i, 3.0, -1.9, 0.0
- Cc1ccc(N2CCN(C(=O)N3CCOCC3)CC2)c(C)c1
→ /, 10.5, 8.1, 2.1, 0.709, i, 4.1, -0.4, 0.4
- CN(c1cc2c(c3c1ccn3C)C1CCC2C1)C1CCCCC1 (configuration not stated)
→ /, -6.7, -10.0, -8.1, /, i, /, /, 1.5
- CCOC(=O)N1CCN(C(=O)c2cc3c(=O)n4cccc(C)c4nc3s2)CC1
→ -8.3, 4.3, 9.7, 0.6, 0.688, i, i, -2.5, -0.6
- NC(=O)c1c(NC(=O)C2CC=CCC2C(=O)O)sc2c1CCCCC2 (configuration not stated)
→ 9.1, 7.1, 0.2, 1.3, 0.639, i, 1.8, 3.1, -12.4
- COc1ccccc1-c1nc(C(N)=O)c2[nH]c(=O)n(-c3cccc(C)c3)c2n1
→ 0.5, /, /, /, 0.675, /, -2.0, -1.4, 1.3
- COc1ccc(S(=O)(=O)Nc2cc3c4c(c2)C(C)C(=O)N4CCC3)cc1OC (configuration not stated)
→ -41.5, /, /, /, 0.631, /, 1.1, 8.4, -5.6
- COc1ccc(-c2csc(NC(=S)NC(=O)c3cccs3)n2)cc1Br
→ /, 7.4, 10.8, -0.7, 0.747, i, 3.6, -5.0, 2.7
- O=C1NC(Cc2ccc(O)cc2)c2nc3cc(F)c(F)cc3c(=O)n2-c2cc3ccccc3cc21 (configuration not stated)
→ /, -5.3, 9.4, 0.3, /, i, /, /, -4.8
- CC1=C(C(=O)N(C)C)CC(CC(=O)NC(c2ccccc2)c2ccccc2)C(=O)N1CCC1=CCCCC1 (configuration not stated)
→ /, -31.9, -27.4, -3.3, /, i, /, /, 2.2
- COCCN1C(=O)N[C@@H](c2ccccc2)C(C(C)=O)=C1C
→ 2.7, 9.6, 8.8, -1.8, /, i, 3.2, /, /
- COc1ccccc1OCc1ccc(C(=O)Nc2ccncc2)o1
→ -3.4, /, /, /, 0.632, /, 1.6, 6.5, 3.2
- COc1ccc(S(=O)(=O)N2CCCCC2)cc1NC(=O)CCC(=O)N1CCC(c2ccccc2)=N1
→ /, -2.9, 12.7, -2.3, /, i, /, -6.7, -0.3
- CCOC(=O)c1cc2ccc3ccccc3c2s1
→ -3.3, /, /, /, 0.716, /, 2.6, 0.2, -2.0
- CN(CC(=O)Nc1ccccc1C(F)(F)F)C(=O)COc1ncnc2sccc12
→ -4.0, 10.4, 6.1, -4.9, 0.693, i, -0.9, -0.8, 5.5
- COCCCNC(=S)NNC(=O)Cn1nc(C)c(Br)c1C
→ 51.2, 5.9, 4.5, -7.9, 0.721, i, 2.9, -0.9, 2.7
- Cc1cccc(OCCCCCn2ccnc2)c1
→ -8.6, /, /, /, 0.643, /, 5.4, 2.9, 5.6
- O=C(c1[nH]c(C(F)(F)F)nc1-c1ccccc1)N1CCN(C/C=C/c2ccccc2)CC1
→ /, -6.5, -2.3, 1.7, /, i, /, /, 0.3

This is a subset, so the mix of outcomes need not match the whole.
